# CSC inhib: cancer stem cell viability inhibitors, primary screen, luminescence; cancer stem cell-like cells viability; 300,000 tested, 1.1% active; AID 2717, 2010; inhibition, % at 7.5 µM;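 active = mean at 75% or more and at least half the replicates too; tested in HMLE shEcad cells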;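 note: 0% = median of negative and 100% = median of positive control wells; the first replicate is given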
# Rce1 inhib: yeast Rce1p protease inhibitors, primary screen, biochemical, fluorescence, cell-free homogeneous; CAAX prenyl protease 2 (Saccharomyces cerevisiae (strain ATCC 204508 / S288c)), Q03530; 290,000 tested, 0.27% active; yeast membranes, quenched prenylated peptide cleavage fluorescence; calls only; AID 2563, 2010;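 active = fall in fluorescence gain of 50% or more versus controls, with final raw signal at or below 3038400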;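 note: plate controls were neutral control wells for no effect and wells lacking membranes for full effect; tested at 10 µM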
# Target sequence (Q03530 whole entry, looked up): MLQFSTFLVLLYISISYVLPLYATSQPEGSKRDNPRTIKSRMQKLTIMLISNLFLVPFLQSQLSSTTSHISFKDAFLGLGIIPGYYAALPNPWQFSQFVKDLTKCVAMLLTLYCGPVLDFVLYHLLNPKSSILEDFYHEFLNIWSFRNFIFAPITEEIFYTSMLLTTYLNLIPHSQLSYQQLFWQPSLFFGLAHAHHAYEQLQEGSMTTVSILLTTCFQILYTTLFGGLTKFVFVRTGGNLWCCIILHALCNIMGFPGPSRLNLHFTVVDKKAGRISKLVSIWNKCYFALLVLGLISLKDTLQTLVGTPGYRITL
# HIV Env fusion: inhibitors of HIV-1 Env-driven cell-cell fusion, primary screen, HeLa-JRFL effector, CEM21 target cells, luciferase. inhibition, % at 12.3 µM. 360,000 tested, 1.1% active;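 active = mean replicate inhibition score of at least 50 and every replicate individually at or above 50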;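 note: 0% = plate neutral controls and 100% = maraviroc near 300 nM; one replicate is shown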
# MT1-MMP act inh: blockers of MT1-MMP proenzyme processing, primary screen, HT1080 RFP-PRO-GFP cells, GFP/RFP fluorescence; Matrix metalloproteinase-14 (Homo sapiens), P50281; GFP/RFP ratio fluorescence, overnight; percent of plate control window, DMSO zero; GFP/RFP ratio change, % at 20 µM; 360,000 tested, 0.061% active; AID 651647, 2012;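 active = GFP/RFP ratio change of at least 30% with cell ATP level not reduced by more than half and red fluorescence within 50% of control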; note: strong numbers were not always called active
#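 Assay system – RFP-PRO-GFP reporter HT1080 cells · Compound dosing – single dose of 20 µM compound, 1% DMSO final · Incubation – overnight compound exposure at 37 °C · Measure – GFP/RFP fluorescence ratio · Benchmarks – DMSO wells and RFP-L50D-GFP cells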
# MT1-MMP act inh RFP: further read-out of MT1-MMP act inh, marked with its call; RFP signal change, %; measured here: RFP expression control read;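 0 = vehicle wells; hits needed this value within 50% of zero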
# Numbers without * were called inactive; i = inactive; . = no result given.
SMILES,CSC inhib,Rce1 inhib,HIV Env fusion,MT1-MMP act inh,MT1-MMP act inh RFP
Nc1nc(N)nc(-c2ccc([N+](=O)[O-])o2)n1,.,.,.,3,-3
Cn1c(=O)c(-c2ccccc2)cc2ccccc21,.,.,.,-2,0
CCCCC[C@H](C)N1C[C@H](COCc2ccccc2)Oc2cc(N3CCC[C@H]3CO)ccc2S1(=O)=O,.,.,.,-17,-23
CC1=CC(Cc2ccccc2)N(C)C(C(N)=O)C1 (stereo not given),.,.,.,7,0
O=C(c1ccccc1)c1nn(-c2ccccc2)c(=O)cc1-c1ccccc1,.,.,.,5,1
COC(=O)c1cc(=O)nc(NN=Cc2ccc(OC)cc2)s1,.,.,.,1,5
CC(=NNC(=S)N1CCN(c2ccccn2)CC1)c1nccs1,.,.,.,25,-1
COc1ccc(N=Cc2ccc(N(CCC#N)CCC#N)cc2)cc1,.,.,.,1,2
CCCCN1C(=O)C(CC(=O)NCc2ccco2)CC(C(=O)N2CCOCC2)=C1C (stereo not given),.,.,.,1,5
O=[N+]([O-])c1cccc2[nH]ncc12,.,.,.,1,3
COC(=O)c1ccc(NCc2cc(O)ccc2O)cc1,.,.,.,-30,-20
Oc1c(Cl)c(Cl)c2ncccc2c1Cl,.,.,.,1,0
CCCCn1c(OC(=S)N(CC)CC)cc(C)nc1=S,.,.,.,7,-2
COc1ccc(CN2C(=O)C(CC(=O)NCCN3CCOCC3)CC(C(=O)N3CCOCC3)=C2C)cc1 (stereo not given),.,.,.,1,8
CCCCC[C@H](C)N1C[C@H](COCc2ccccc2)Oc2cc(N3CCC[C@@H]3CO)ccc2S1(=O)=O,.,.,.,-8,-8
O=C1CCCN1C(=O)CSc1ncnc2sccc12,.,.,.,1,2
Cc1cc(C)cc(Cn2cc(CN3CC(N4CCN(C)CC4)CS3(=O)=O)nn2)c1 (stereo not given),.,.,.,2,7
O=C(Nc1cc(S(=O)(=O)N2CCCCCC2)ccc1OCC(F)(F)F)c1cnccn1,.,.,.,1,2
COc1ccc(CCNC(=O)c2cc3cc(Cl)ccc3nc2N)cc1OC,.,.,.,-1,-19
CCN(CC(=O)Nc1ccc(NC(C)=O)cc1)C(=O)c1ccc(Sc2nncn2C)c([N+](=O)[O-])c1,.,.,.,2,5
CCc1c(C)nc2[nH]ncn2c1=O,.,.,.,1,1
Cc1cccc(-n2nnnc2SCC(=O)NC2CCCC2)c1,.,.,.,1,2
Cc1ccc([C@H]2C[C@H](O)[C@@H](n3cc(COC(=O)c4ccccc4)nn3)CN2C(=O)c2cccs2)cc1,.,.,.,2,4
Cc1cc(=O)oc2c(N)nccc12,.,.,.,2,7
O=C(COC(=O)c1ccc(Br)o1)Nc1ncc([N+](=O)[O-])s1,.,.,.,-3,-1

# A draw from above in order of count of non-hydrogen atoms, rising.
SMILES,CSC inhib,Rce1 inhib,HIV Env fusion,MT1-MMP act inh,MT1-MMP act inh RFP
O=[N+]([O-])c1cccc2[nH]ncc12,.,.,.,1,3
CCc1c(C)nc2[nH]ncn2c1=O,.,.,.,1,1
Oc1c(Cl)c(Cl)c2ncccc2c1Cl,.,.,.,1,0
Nc1nc(N)nc(-c2ccc([N+](=O)[O-])o2)n1,.,.,.,3,-3
Cn1c(=O)c(-c2ccccc2)cc2ccccc21,.,.,.,-2,0
O=C1CCCN1C(=O)CSc1ncnc2sccc12,.,.,.,1,2
COC(=O)c1ccc(NCc2cc(O)ccc2O)cc1,.,.,.,-30,-20
COC(=O)c1cc(=O)nc(NN=Cc2ccc(OC)cc2)s1,.,.,.,1,5
CC(=NNC(=S)N1CCN(c2ccccn2)CC1)c1nccs1,.,.,.,25,-1
COc1ccc(CCNC(=O)c2cc3cc(Cl)ccc3nc2N)cc1OC,.,.,.,-1,-19
CCN(CC(=O)Nc1ccc(NC(C)=O)cc1)C(=O)c1ccc(Sc2nncn2C)c([N+](=O)[O-])c1,.,.,.,2,5
Cc1ccc([C@H]2C[C@H](O)[C@@H](n3cc(COC(=O)c4ccccc4)nn3)CN2C(=O)c2cccs2)cc1,.,.,.,2,4

# (listing goes on)
SMILES,CSC inhib,Rce1 inhib,HIV Env fusion,MT1-MMP act inh,MT1-MMP act inh RFP
CC(=O)c1cc(Cl)ccc1OCC(=O)Nc1cccc(S(=O)(=O)N2CCCC2)c1,.,.,.,2,-4
O=C(NCCNC(=O)c1cccnc1)c1cccnc1,.,.,.,5,5
Nc1ccc2[nH]c(=S)[nH]c2c1,.,.,.,0,2
CC1(C)CC2(C)OC2C2(C1)N=NC(=Nc1ccccc1)O2 (stereo not given),.,.,.,3,-5
CC12CCC(=O)N1C(C(=O)N1CCN(c3ccc([N+](=O)[O-])cc3)CC1)CS2 (stereo not given),.,.,.,0,0
O=C(CCCOc1ccccc1)Nc1cccc(S(=O)(=O)N2CCCCC2)c1,.,.,.,5,-3
COc1ccc(Cn2cc(CN3CC(N4CCN(C)CC4)CS3(=O)=O)nn2)cc1 (stereo not given),.,.,.,2,3
CCn1nnnc1SCC(=O)N1CCN(Cc2ccc3c(c2)OCCO3)CC1,.,.,.,-3,-3
CCOC(=O)C1CCNC(=O)C1=O (stereo not given),.,.,.,-4,0
Cc1ccc(S(=O)(=O)N2CCN(C(=O)CCc3c[nH]c4ccccc34)CC2)c(C)c1,.,.,.,2,-3
CCOC(=O)c1c2c(n(-c3ccc(OC)cc3)c1C)C(=O)C(=O)c1ccccc1-2,.,.,.,-18,-24
COc1ccc(CCNC(=O)c2cc3ccc(Cl)cc3nc2N)cc1,.,.,.,-2,-20
Nc1nc2cc3c(cc2cc1C(=O)NCc1ccc(F)cc1)OCO3,.,.,.,3,-27
O=C(Nc1c(Br)cc2c(c1Br)Cc1ccccc1-2)C(F)(F)F,.,.,.,1,5
CCCCN1C[C@H](c2ccc(OC)cc2)[C@@H](CC(=O)Nc2ccc(Br)cc2)C1=O,.,.,.,-1,-3
CC1=CNC(=O)CC(C)(C)C1,.,.,.,3,6
CCN(c1ccc2c(c1)OCO2)S(=O)(=O)c1cc2c(cc1Br)CCN2C(=O)C1CC1,.,.,.,-6,-8
O=c1nc2n(CCO)c3ccccc3cc-2c(=O)[nH]1,.,.,.,-2,1
Nc1nc(-c2ccccc2)ns1,.,.,.,1,1
Cc1cc(C)cc(NC(=O)COC(=O)Cn2cnc3c2c(=O)n(C)c(=O)n3C)c1,.,.,.,1,6
COc1ccc([C@H]2C[C@@H](n3cc(C4CC4)nn3)[C@H](O)CN2C(=O)C2CCCCC2)cc1,.,.,.,1,2
O=c1[nH]c(=O)n(C2OC(CO)C(O)C2O)cc1F (stereo not given),.,.,.,7,0
Cn1c2nc(=O)n(-c3ccccc3)c(=O)c-2nc2c1CCCC2,.,.,.,-48,4
CC/C(=C(/c1ccccc1)c1ccc(OCC[N+](C)(C)C)cc1)c1ccccc1,.,.,.,-6,-11
CC1(C)N=C(N)NC(=NCCCOc2ccc([N+](=O)[O-])cc2)N1,.,.,.,-1,4

# More entries
SMILES,CSC inhib,Rce1 inhib,HIV Env fusion,MT1-MMP act inh,MT1-MMP act inh RFP
[O-]C(=C(C(=S)Nc1cccc2ccccc12)[n+]1ccccc1)c1ccc2c(c1)OCCO2,.,.,.,4,3
CCOC1CCCc2oc(-c3ccsc3)c(-c3cnc(OC)nc3)c21 (stereo not given),.,.,.,3,3
CC(C)CCCCCCCCCCCCC(=O)NCC(=O)NC1C(O)C(O)C(Nc2ncnc3nc[nH]c23)OC1C(O)CO (stereo not given),.,.,.,-54,-33
Cc1nc(Nc2ccc(Cl)c(Cl)c2)sc1C(/C=C/c1ccc2c(c1)OCO2)=NNc1ccc([N+](=O)[O-])cc1[N+](=O)[O-],.,.,.,9,1
O=S1(=O)N[C@H](Cc2ccccc2)COc2cc(N3CC[C@H](O)C3)ccc21,.,.,.,1,1
C[C@@H](c1ccccc1)N1C[C@@H](COCc2ccccc2)Oc2cc(N3CC[C@H](N(C)C)C3)ccc2S1(=O)=O,.,.,.,0,-3
O=C(CNC(=O)c1ccc(Cl)cc1)OCn1nnc2ccccc2c1=O,.,.,.,6,3
COc1ccccc1-c1cccc(-c2nc(C(=O)Nc3nccs3)cc3c2[C@@H](CCO)N(C(C)=O)C3)c1,.,.,.,-3,-4
OCC(O)C(O)C(O)c1cnn(-c2ccccc2)n1 (stereo not given),.,.,.,-1,3
O=c1[nH]nc(SC2CCCCC2)c(=O)[nH]1,.,.,.,3,2
CC1CCCCC1NC(=O)CSC1=Nc2ccccc2C2CC=NN12 (stereo not given),.,.,.,0,0
CC1(C)COC(=S)N1CCC#N,.,.,.,-4,0
O=C(COC(=O)c1ccncc1)Nc1cc(S(=O)(=O)N2CCOCC2)ccc1Cl,.,.,.,-3,0
CC(C)CC1C(=O)N(Cc2cn(CCC3OCCCO3)nn2)CCS(=O)(=O)N1Cc1ccc(-c2ccc(Cl)cc2)cc1 (stereo not given),.,.,.,3,0
CCOC(=O)c1c(NC(=O)CSc2nnc(-c3ccncc3)n2Cc2ccco2)sc(C(C)=O)c1C,.,.,.,-9,-8
CC1C(=O)N(Cc2cn(Cc3ccco3)nn2)CCS(=O)(=O)N1Cc1ccc(-c2cccc(N(C)C)c2)cc1 (stereo not given),.,.,.,-1,-6
NC(=S)NN=C1c2ccccc2-c2c(F)c(F)c(F)c(F)c21,.,.,.,-10,0
O=c1cc(-c2ccccc2)oc2c1CCCC2,.,.,.,-3,2
O=C(COC(=O)c1cnc(Cl)c(Cl)c1)NC1CCCCCC1,.,.,.,1,0
COc1ccc(CCN2C(=O)CCC3=C2CCCC3=O)cc1OC,.,.,.,5,7
CCOC(=O)C1(C(=O)OCC)NC(=O)CC1C (stereo not given),.,.,.,3,1
CN(CC(=O)NC(=O)NC1CCCCC1)CC(=O)Nc1ccc(OC(F)(F)F)cc1,.,.,.,1,-4
O=C(NC(=O)c1c(F)cccc1F)Nc1cccc(Oc2ncc(Cl)cn2)c1,.,.,.,-3,-1
CCCCCCn1cc(CN2CC(N(C)CCC)CS2(=O)=O)nn1 (stereo not given),.,.,.,3,5
CCOc1cc(C=NNC(=O)N(c2ccccc2)c2ccccc2)ccc1O,.,.,.,2,-6

# (list continues)
SMILES,CSC inhib,Rce1 inhib,HIV Env fusion,MT1-MMP act inh,MT1-MMP act inh RFP
C[C@@H](c1ccccc1)N1C[C@@H](COCc2ccccc2)Oc2cc(N3CC[C@@H](O)C3)ccc2S1(=O)=O,.,.,.,0,-10
O=C(CCN1C(=O)CC1c1ccco1)N1CCOCC1 (stereo not given),.,.,.,4,4
CCOC(=O)c1csc(-c2ccc(COC(=O)c3ccccc3)o2)n1,.,.,.,5,4
CCN(C(=O)COC(=O)c1ccccc1NCCO)C1CCS(=O)(=O)C1 (stereo not given),.,i,.,-1,2
CC12CCC(=O)N1C(C(=O)Nc1nc(-c3cc(F)ccc3F)cs1)CS2 (stereo not given),.,i,.,-1,-11
COc1ccc(CCNS(=O)(=O)c2cc3c4c(c2)CCN4C(=O)CC3)cc1OC,.,i,.,0,2
COCCN(C(=O)COC(=O)c1ccc(Cl)nc1)c1c(N)n(Cc2ccccc2)c(=O)[nH]c1=O,.,i,.,1,1
COc1cc(S(=O)(=O)N(Cc2cccs2)C2CC2)ccc1-n1cnnn1,.,i,.,4,-3
O=C(COC(=O)Cc1c[nH]c2ccccc12)NCCc1ccccc1,.,i,.,2,-2
Cc1c(NC(=O)COC(=O)Cc2ccc(F)cc2)c(=O)n(-c2ccccc2)n1C,.,i,.,2,0
CCOc1ccc(N2CC(NC(=O)c3ccc4ccccc4c3)CC2=O)cc1 (stereo not given),.,i,.,0,-1
O=C(Nc1ccc(S(=O)(=O)N2CCCCC2)cc1)c1cccnc1Cl,.,i,.,-1,-3
Cc1ccc(CSCC(=O)N(C)CC(=O)Nc2cccc(F)c2)cc1,.,i,.,1,-1
Cc1ccc(-c2nn(-c3ccc(F)cc3)cc2C(=O)NCC(c2cccs2)N2CCOCC2)cc1 (stereo not given),.,i,.,2,-1
O=C1NC(Cc2ccccc2)c2nc3ccc(Cl)cc3c(=O)n2-c2ccc(Cl)cc21 (stereo not given),2,.,19,.,.
O=C1NC(Cc2ccc(O)cc2)c2nc3ccc(Cl)cc3c(=O)n2-c2cc(Cl)ccc21 (stereo not given),1,.,34,.,.
COc1ccc(NS(=O)(=O)c2ccc(NN=Cc3ccc(C(=O)O)cc3)c([N+](=O)[O-])c2)cc1,-3,.,-11,.,.
Cc1ccc2c(c1)-n1c(nc3cc(F)ccc3c1=O)C(Cc1ccccc1)NC2=O (stereo not given),-13,.,20,.,.
COc1ccccc1OCCC(=O)OCC(=O)Nc1ccc2c(c1)OCO2,-3,.,0,.,.

# Screening data: PubChem BioAssay, several laboratories

# These rows are one share of the data, so the mix of outcomes need not match the whole.
